Compound activity from PubChem BioAssay.
SARS PLpro yeast = SARS-CoV PLP inhibition in yeast | S. cerevisiae expressing SARS-CoV PLpro, growth rescue; control for the full effect not named in the record | AID 485353 | Potency, µM (titrated, usually from 32.9 µM), for the others: top-dose activity, positive = growth rescue | 330,000 tested, 0.19% active; active means well fitted rising curve with a large enough effect; inconclusive means small, poorly fitted or top-dose-only effect; inactive means no such curve, though single readings can be large or run the other way; note: 0% is about no effect; nearly all actives have a fitted effect of over 55% in size; growth read by luminescence after 48 h
Lassa entry inh = Lassa virus entry inhibition; Lassa virus pseudotype entry inhibition, cell reporter; control for the full effect not named in the record; 300,000 tested, 1.2% active; Potency, µM (doses to about 37.9 µM), for the others: top-dose activity change, negative = inhibition, usual class: inhibitors; active means well fitted inhibition curve with a large enough effect; inconclusive means small, poorly fitted or top-dose-only effect, or effect the other way; inactive means flat fitted curve, though single readings scatter; tested in HEK293 cells; note: % is set by controls: 0 for no effect and ±100 for the full control effect; nearly all actives have a fitted effect of over 50% in size; luciferase read-out
2A StopGo = FMDV 2A StopGo reporter, luciferase signal | human cells with a luciferase reporter of 2A StopGo recoding; control for the full effect not named in the record | Potency, µM (top dose mostly 57.9 µM), for the others: top-dose signal change, negative = less light | 410,000 tested, 1.2% active; active = well fitted falling curve with a large enough effect; inconclusive = small, poorly fitted or top-dose-only effect; inactive = no such curve, though single readings can be large or run the other way; tested in HEK293T cells; note: % is set by controls: 0 for no effect and ±100 for the full control effect; nearly all actives have a fitted effect of over 45% in size; luciferase light after 4 h
Cruzain Triton = cruzain (T. cruzi) inhibition with detergent. P25779. purified cruzain, Z-FR-AMC fluorescence, 0.01% Triton. Potency, µM, inactives show max response, negative = inhibition, hits mostly inhibitors. 200,000 tested, 0.43% active;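 note: plate controls were neutral wells for no effect and buffer without enzyme for full effect; nearly all actives have a fitted effect of over 40% in size; top concentration of the series not given in the record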
Target sequence (P25779 123-467 limits assumed): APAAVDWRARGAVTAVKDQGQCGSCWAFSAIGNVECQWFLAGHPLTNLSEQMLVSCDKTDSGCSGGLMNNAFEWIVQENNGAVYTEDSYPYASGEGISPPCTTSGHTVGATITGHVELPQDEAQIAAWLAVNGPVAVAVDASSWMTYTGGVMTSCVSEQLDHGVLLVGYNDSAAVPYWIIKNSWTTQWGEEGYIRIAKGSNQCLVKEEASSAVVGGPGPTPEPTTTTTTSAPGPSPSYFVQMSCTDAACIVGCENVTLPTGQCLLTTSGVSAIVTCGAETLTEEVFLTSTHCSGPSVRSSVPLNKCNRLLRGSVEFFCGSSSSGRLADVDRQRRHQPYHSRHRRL
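Z-FR-AMC hydrolysis (2 uM substrate) by cruzain (1.5 nM) monitored kinetically at ex 360/em 450 nm after 15 min room-temperature compound exposure; 0.01% Triton X-100, pH 5.5, 5 mM DTT.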
RE007 growth inh = less growth of the S. pombe RE007 Vpr strain; Potency, µM (series often up to 92.2 µM), for the others: at the top dose activity change, negative = less growth; 360,000 tested, 0.21% active; S. pombe RE007 Vpr strain, BacTiter-Glo ATP luminescence, 24 h; control for the full effect not named in the record; active = well fitted falling curve with a large enough effect; inconclusive = small, poorly fitted or top-dose-only effect; inactive = no such curve, though single readings can be large or run the other way;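 note: % is set by controls: 0 for no effect and ±100 for the full control effect; nearly all actives have a fitted effect of over 50% in size; the assay follows cell death caused by Vpr and the record does not say whether a fall means rescue or toxicity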
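Fission yeast RE007 carrying one integrated HIV-1 vpr copy, seeded at OD 0.01 in PMG+AL medium with 23 nL pinned compound. Grown 24 h at 30 degrees; viability read by BacTiter-Glo luminescence after 5 min.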
Cruzain noTriton = cruzain (T. cruzi) inhibition without detergent | purified cruzain, Z-FR-AMC fluorescence, no detergent | 200,000 tested, 2.3% active | Potency, µM, without a hit: max response, negative = inhibition, most hits filed as inhibitors | P25779;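 note: plate controls were enzyme without inhibitor for no effect and buffer without enzyme for full effect; nearly all actives have a fitted effect of over 40% in size; top concentration of the series not given in the record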
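Detergent-free condition (0.00005% Triton X-100) in acetate buffer pH 5.5 with DTT. 1.5 nM enzyme and compound were pre-mixed 15 min, then 2 uM Z-FR-AMC substrate added; reaction progress from fluorescence change between first and third reads (60 s).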
Marburg entry inh = Marburg virus entry inhibition; Marburg virus pseudotyped entry inhibition, cell reporter; control for the full effect not named in the record; about a third of the inactives were read at about 46 µM; 300,000 tested, 1.8% active; Potency, µM (series often up to 37.8 µM), for the others: top-dose activity change, negative = inhibition, hits mostly inhibitors; active = well fitted inhibition curve with a large enough effect; inconclusive = small, poorly fitted or top-dose-only effect, or effect the other way; inactive = flat fitted curve, though single readings scatter; tested in HEK293 cells; about a fifth of its hits are not listed in these tables; note: % is set by controls: 0 for no effect and ±100 for the full control effect; luciferase read-out
NS1 inh = blocks influenza NS1 protein function; AID 2326; S. cerevisiae slowed by influenza A NS1, growth recovery by OD600; Potency, µM (titrated, usually from 46.1 µM), for inactives: top-dose activity, positive = more growth; 270,000 tested, 0.4% active; active means well fitted rising curve with a large enough effect; inconclusive means small, poorly fitted or top-dose-only effect; inactive means no such curve, though single readings can be large or run the other way; note: nearly all actives have a fitted effect of over 50% in size
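OD600 was taken as the measure of yeast growth restored by compound in an NS1-expressing S. cerevisiae strain. Cells had been washed out of glucose medium and diluted 1:100 into galactose -URA medium, pH 6.0.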
The depositor's hits bear a star; ? = inconclusive; · = no result given; & = joins results of further samples; [ ] = remark or other dose. Unless noted, calls come from the whole dose curve; as a rule, active = well fitted curve in the direction sought with a large enough effect; inconclusive = small, poorly fitted or top-dose-only effect, or another doubt; inactive = no such curve, though single readings can be large; an effect the other way counts as inactive or inconclusive. Potency is the fitted concentration of half-maximal effect.

SMILES	SARS PLpro yeast	Lassa entry inh	2A StopGo	Cruzain Triton	RE007 growth inh	Cruzain noTriton	Marburg entry inh	NS1 inh
COc1ccc(NC(=S)Nc2ccccn2)c(OC)c1	-5%	?	68%[activator]	2.0%	-7%	-8%	0%	-7%
C=CCOc1ccc(C2NC(=O)c3ccccc3O2)cc1 (stereo unspecified)	13%	0%	21%	·	22%	·	1%	-5%
Cc1cc(F)c(F)c(C(=O)N2CCN(C)CC2)c1Cl	8%	5%	5%	4.2%	15%	1%	15%[46.1 µM]	2%
CC(OC(=O)c1cn(C)c2ccccc12)C(=O)N1CCCC1 (stereo unspecified)	4%	-13%	-8%	·	-2%	·	10%	·
Cc1ccc(OCCC(=O)OCC(=O)NC2CCS(=O)(=O)C2)cc1 (stereo unspecified)	1%	14%	-18%	·	-12%	·	0%[46.1 µM]	·
CCCn1c(SCC(=O)Nc2sc(C)c(C)c2C#N)nnc1C(C)C	3%	14%	-6%	-1.4%	-5%	4%	-16%	8.9µM*
CCOC(=O)Nc1cc2c(cc1[N+](=O)[O-])-c1ccccc1C2=O	·	21%	58%[activator]	·	0%	·	3%	·
NC1=NC2(CCCCC2)N(c2ccc(F)cc2)C(N)=N1	4%	?	6%	0.6%	-7%	4%	16%	-7%
COc1ccc(-c2cc3ccc(O)c(CN4CCCC(C)C4)c3oc2=O)cc1 (stereo unspecified)	·	9%[46.1 µM]	2%	6.3%	·	-2%	·	·
Cc1cccc(CCNC(=O)C2CCCN(S(=O)(=O)c3cnc[nH]3)C2)c1 (stereo unspecified)	-1%	·	-9%	-6.3%	-3%	-7%	·	-1%
CCOC(=O)CNC(=O)Cn1cnc2c(oc3ccccc32)c1=O	1%	·	13%	·	2%	·	·	-5%
COc1ccc(C(=O)C2CCCN(Cc3cn(C)nc3-c3ccccc3)C2)cc1F (stereo unspecified)	-1%	·	-4%	·	-4%	·	·	1%
Cc1ccc(/C=N/n2c(-c3ccncc3)n[nH]c2=S)o1	0%	-3%[46.1 µM]	7%	·	-9%	·	-6%[46.1 µM]	4%
C#CCOCCOCCOCCNc1nc(N2CCN(C(=O)Cn3cc(CCCN=C(N)N)nn3)CC2)nc(N2CCN(C(=O)[C@H](C)n3cc(CCCN=C(N)N)nn3)CC2)n1	-9%	-4%	-4%	-2.3%	-1%	-4%	3%	26%
COc1ccc(-c2csc3ncnc(Nc4ccc(O)cc4)c23)cc1	0%	·	-27%	·	-9%	·	·	8%
CC(=O)C1=C(O)C(=O)N(c2ccc(S(=O)(=O)Nc3nccs3)cc2)C1c1ccc([N+](=O)[O-])cc1 (stereo unspecified)	-2%	4%[46.1 µM]	13%	·	7%	·	-11%[46.1 µM]	·
CCCCCCCCCCOC(=O)Cn1c(COc2ccc(C)cc2)[n+](C)c2ccccc21	-16%	?	?	·	-26%	·	?	-105%
COc1ccc(CNC(=O)C(C)N(C)Cc2cccc(F)c2)cc1 (stereo unspecified)	2%	·	-2%	·	-6%	·	·	2%
CCOc1ccc(N=C/C=C/c2ccccc2)c(O)c1	-6%	·	39%[activator]	·	-30%	·	·	-66%
Cc1ccc(C=C2C(Cl)=C(Cl)C(Cl)=C2Cl)cc1	0%	13%	18µM*	·	-21%	·	17%[46.1 µM]	8%
COc1ccc(C2C(C(=O)NCCN(C)C)c3ccccc3C(=O)N2C)cc1OC (stereo unspecified)	0%	3%	9%	7.3%	3%	-2%	26%&26%	8%
Cc1ccc(OCCCn2c(C3CC(=O)N(c4cccc(Cl)c4)C3)nc3ccccc32)c(C)c1 (stereo unspecified)	·	-3%[46.1 µM]	-9%	-6.6%	·	21%	?	·
CC(C)CN(C(=O)CCC(=O)OCc1ccc(Cl)cc1Cl)c1c(N)n(CC(C)C)c(=O)[nH]c1=O	4%	-8%	-28%	·	2%	·	?	·
COc1ccc(CCNC(=O)c2ccc3c(c2)CCN3S(=O)(=O)c2ccccc2)cc1	·	?	4%	-2.6%	·	-9%	-22%[46.1 µM]	·
CCOC(=O)[C@H]1O[C@@H]1C(=O)N[C@@H](CC(C)C)C(=O)NCCC(C)C	-4%	·	0%	·	4%[18.4 µM]	·	·	2%
CN1CCN(C(=S)NCCc2ccccc2)CC1	1%	10%	·	-11%	-5%	-1%	7%	-10%
CCC1(c2ccc(F)cc2)NC(=O)N(CC(=O)NC2CCCC(C)C2C)C1=O (stereo unspecified)	3%	6%[46.1 µM]	-14%	·	13%	·	-1%	·
CN(Cc1cnn(C)c1)C(=O)c1cc2ccccc2oc1=O	6%	20%	3%	1.5%	19%	0%	10%	2%
Cc1ccn(CC(=O)N2CCCC(N3CCN(Cc4ccc5c(c4)OCO5)CC3)C2)n1 (stereo unspecified)	5%	-1%	-20%	·	5%	·	1%	0%
O=c1[nH]c(O)c(Cc2ccc3c(c2)OCO3)c(=O)[nH]1	0%	3%	-3%	·	0%	·	18%	-2%
O=C(CCCN1C(=O)/C(=C\c2ccco2)SC1=S)Nc1cccc2ccccc12	-14%	-18%	-23%	-20%	-1%	-13%	?	-30%
Cc1ccccc1CNC(=O)CN1C(=O)CSc2ccc(S(=O)(=O)N(C)C)cc21	·	-10%[46.1 µM]	-12%	2.5%	·	-3%	·	·
N#Cc1ccc(OC(=O)C2CCN(C3=NS(=O)(=O)c4ccccc43)CC2)cc1	1%	-6%	20%	·	17%	·	?	·
O=C(Nc1cc(Cl)cc(Cl)c1)c1ccno1	-6%	18%[46.1 µM]	-9%	·	-20%	·	5%[46.1 µM]	-6%
Cc1ccc(Cl)cc1NC(=O)CCC(=O)N1CC(C)Sc2ccccc21 (stereo unspecified)	·	7%[46.1 µM]	-19%	-5.6%	·	-4%	·	·
COc1ccc(N2CC(C(=O)N3CCc4ccccc43)CC2=O)cc1 (stereo unspecified)	·	11%	2%	·	-8%	·	16%	·
CCN=C1SC(CC(=O)Nc2sc(C)c(C)c2C(=O)OC)C(=O)N1CC (stereo unspecified)	0%	7%	-7%	-0.9%	-9%	?	-3%	-40%
COc1ccc(-c2nn(-c3ccccc3)cc2C(=O)N2CCN(C(=O)c3ccco3)CC2)cc1	-1%	?	-5%	·	-5%	·	-8%[46.1 µM]	·
O=C(COC(=O)C1CCCCC1)Nc1ccccc1OC(F)F	-8%	6%	-14%	·	0%	·	22%[46.1 µM]	·
Cc1ccc(CS(=O)(=O)c2ncc(Cl)c(C(=O)Nc3nc4ccc(F)cc4s3)n2)cc1	·	?	?	-3.6%	·	0%	-8%[46.1 µM]	·
CCCCCC(=O)Nc1nc(C)c(-c2csc(Nc3cc(Cl)ccc3OC)n2)s1	6%	·	-17%	0.4%	1%	3.2µM*	·	22%
COc1ccc(N2C(=O)CS(=O)(=O)C23C(=O)N(Cc2ccccc2)c2ccccc23)cc1 (stereo unspecified)	·	-2%[46.1 µM]	0%	-2.5%	·	3.2µM*	·	·
COc1ccc(C(C(=O)NC2CCCC2)N(CCO)C(=O)Cn2nnc(-c3ccc(C)o3)n2)cc1OC (stereo unspecified)	2%	8%[46.1 µM]	9%	·	10%	·	-2%[46.1 µM]	-4%
O=C(CNC(=S)N(Cc1ccccc1F)C1CCCCC1)NCC1CCCO1 (stereo unspecified)	0%	4.5µM*	0%	·	-10%	·	?	·
O=C(CCC(=O)N(CC(=O)NC1CCCCC1)c1ccccc1F)Nc1nccs1	1%	-4%	11%	·	-4%	·	?	0%
CCCCc1ccc(C(=O)Nc2ccc3nc(N(CC)CC)cc(C)c3c2)cc1	·	-11%[46.1 µM]	?	-4.1%	·	6%	?	·

Structures shown so far that have a thiophene ring, fused or not:
SMILES	SARS PLpro yeast	Lassa entry inh	2A StopGo	Cruzain Triton	RE007 growth inh	Cruzain noTriton	Marburg entry inh	NS1 inh
CCCn1c(SCC(=O)Nc2sc(C)c(C)c2C#N)nnc1C(C)C	3%	14%	-6%	-1.4%	-5%	4%	-16%	8.9µM*
COc1ccc(-c2csc3ncnc(Nc4ccc(O)cc4)c23)cc1	0%	·	-27%	·	-9%	·	·	8%
CCN=C1SC(CC(=O)Nc2sc(C)c(C)c2C(=O)OC)C(=O)N1CC (stereo unspecified)	0%	7%	-7%	-0.9%	-9%	?	-3%	-40%

In the list so far, these contain a cyano group.
SMILES	SARS PLpro yeast	Lassa entry inh	2A StopGo	Cruzain Triton	RE007 growth inh	Cruzain noTriton	Marburg entry inh	NS1 inh
CCCn1c(SCC(=O)Nc2sc(C)c(C)c2C#N)nnc1C(C)C	3%	14%	-6%	-1.4%	-5%	4%	-16%	8.9µM*
N#Cc1ccc(OC(=O)C2CCN(C3=NS(=O)(=O)c4ccccc43)CC2)cc1	1%	-6%	20%	·	17%	·	?	·

Looked up one by one from above (two):
SMILES	SARS PLpro yeast	Lassa entry inh	2A StopGo	Cruzain Triton	RE007 growth inh	Cruzain noTriton	Marburg entry inh	NS1 inh
CCCCc1ccc(C(=O)Nc2ccc3nc(N(CC)CC)cc(C)c3c2)cc1	·	-11%[46.1 µM]	?	-4.1%	·	6%	?	·
COc1ccc(C(C(=O)NC2CCCC2)N(CCO)C(=O)Cn2nnc(-c3ccc(C)o3)n2)cc1OC (stereo unspecified)	2%	8%[46.1 µM]	9%	·	10%	·	-2%[46.1 µM]	-4%
